VACV Venus inh – inhibitors of vaccinia virus (Venus reporter); 330,000 tested, 0.46% active; Potency, µM (doses to about 36.5 µM), for the others: at the highest dose activity change, negative = inhibition, hits mostly inhibitors; Vaccinia virus Venus reporter expression, fluorescence; active means well fitted inhibition curve with a large enough effect; inconclusive means small, poorly fitted or top-dose-only effect; inactive means no such curve, though single readings can be large or run the other way; tested in A549 cells; further: nearly all actives have a fitted effect of over 30% in size; inactives centre near -10
Vaccinia mCherry – inhibitors of vaccinia virus infection (mCherry reporter signal); Vaccinia virus mCherry reporter infection, fluorescence; about a quarter of the inactives have no number; Potency, µM (top dose mostly 36.5 µM), inactives show at the top dose activity change, negative = inhibition, hits mostly inhibitors; 310,000 tested, 0.63% active; AID 720579; active = well fitted inhibition curve with a large enough effect; inconclusive = small, poorly fitted or top-dose-only effect; inactive = no such curve, though single readings can be large or run the other way; tested in A549 cells; further: nearly all actives have a fitted effect of over 35% in size; inactives centre near -10
* marks the source's active call; other numbers are inactive results; i = inactive; ? = inconclusive; · = no result given; & = joins results of further samples; [ ] = remark or other dose. On the % scale 0 is the no-effect control and ±100 the full control effect; potency means the concentration at half of the fitted maximal effect.

entry	structure	VACV Venus inh	Vaccinia mCherry
1	Cc1nc2scc(-c3cccs3)c2c(=O)n1CC(=O)O	3%	·
2	CC(=O)Nc1c(OC(C)=O)ccc2c(C)cc(=O)oc12	-15%	·
3	COc1ccccc1C(=O)N/C(=C/c1ccc2c(c1)OCO2)C(=O)Nc1ccc(C(=O)O)cc1	-10%	-12%
4	CC1=NN(C(=O)COc2ccccc2)C(O)(c2cccnc2)C1 (stereo not drawn)	-18%	-1%
5	CCOCCCn1c(SCC(=O)Nc2ccc(F)cc2)nc2c(sc3ccccc32)c1=O	-22%	-17%
6	CCOCCCNC(=O)c1cn(CC(C)C)c(=O)c2cc(OC)c(OC)cc12	-16%	-6%
7	COc1ccc(/C=C/C(=O)Nc2nc3n(n2)C(c2ccccc2)C=C(c2ccccc2)N3)cc1 (stereo not drawn)	-7%	-8%
8	Cc1cc(N=Nc2ccccc2C(=O)O)c(C)c(C)c1O	2%	?
9	O=C(O)c1cn(Cc2ccccc2)nc1-c1cccnc1	-14%	i
10	Cc1c(/C=N/NC(=O)C2(O)c3ccccc3-c3ccccc32)cnn1C	1%	-21%
11	COc1ccccc1NC(=O)/C(=C/c1cccs1)NC(=O)c1ccco1	-15%	i
12	CCNC(=O)c1ccc(-n2c(-c3ccccc3)cc3c2CCCCC3)cc1	-13%	-8%
13	COc1ccc(N2C(=S)NC3N2C(=S)NC3(C)c2ccccc2)cc1 (stereo not drawn)	-5%	-30%
14	CS(=O)(=O)Nc1cccc(-c2ccc3ncnc(Nc4ccc(F)cc4)c3c2)c1	?	?
15	O=C(COc1ccc2c(c1)oc(=O)c1ccccc12)N[C@@H](Cc1ccccc1)C(=O)O	6%	1%
16	Cc1nc2ccc(NC(=O)N3CCOCC3)cc2s1	-6%	-7%
17	Cc1cc(C)nc(N2CCCC(C(=O)Nc3cccc(Cl)c3)C2)n1 (stereo not drawn)	9%	2%
18	CC(C)(C)OC(=O)N1CCC(C(=O)Nc2cccc(C(=O)N3CCCC3)c2)CC1	1%	1%
19	Cc1ccc(C2NC(=O)c3ccccc3N2)c(C)c1 (stereo not drawn)	-23%	-19%
20	CC(C)(Oc1ccc(CCNC(=O)c2ccc(Cl)cc2)cc1)C(=O)O	-9%	-15%
21	COc1ccc(N(CC(=O)N2CCC(C(N)=O)CC2)S(=O)(=O)c2ccccc2)cc1	-7%	i
22	O=c1[nH]nc2n1CCCCC2	-7%	-11%
23	CC1=C(c2ccc(C)cc2)S(=O)(=O)NC1=NCc1cccc(F)c1	-25%	-23%
24	N=C(N)SCc1nc2ccccn2c1Br	-13%	i
25	CCSc1cc(N2CCCC2)nc(-c2ccc(Cl)cc2)n1	-14%	-4%
26	COc1ccc(OCCCC(=O)OCC(=O)c2ccc3c(c2)NC(=O)CO3)cc1	4%	?
27	CCOC(=O)CSCc1nc(-c2ccc(Cl)cc2)oc1C	8%	-9%
28	COc1cc(OC)c2ccc(=O)oc2c1C(CC(=O)N1CCCC(C)C1)c1ccc2c(c1)OCO2 (stereo not drawn)	4%	-5%
29	Cc1cc(/C=C2/C(=N)N3C(c4ccccc4)=CSC3=NC2=O)c(C)n1-c1ccccc1	1%	-11%
30	Cc1c(NC2=C(Cl)C(=O)N(c3ccccc3Cl)C2=O)c(=O)n(-c2ccccc2)n1C	-5%	-6%
31	O=[N+]([O-])c1cccc(S(=O)(=O)N2CCCC2)c1	-12%	-19%
32	O=C(N/N=C\c1ccc(-c2ccc(Cl)c(Cl)c2)o1)C(=O)N1CCCC1	5%	·
33	COc1ccc(NC(=O)C(=O)NCCC2CCCCN2S(=O)(=O)c2ccccc2)cc1 (stereo not drawn)	?	-18%
34	C[C@H](CO)N1C[C@H](C)[C@@H](CN(C)S(=O)(=O)c2ccc(F)cc2)Oc2ccc(NC(=O)Nc3ccc(C(F)(F)F)cc3)cc2C1=O	?	?
35	COc1cc(-c2nnc(SCc3ccccc3Cl)o2)cc(OC)c1OC	-7%	i
36	CS(=O)(=O)NCCc1csc2nc(-c3ccccc3)nn12	-3%	-7%
37	COc1ccc(OC)c2[nH]c(=O)c(CCNC(=O)CC(C)C)cc12	0%	-10%
38	Cc1nc(C)n(CC(O)COc2ccc3c(c2)CCC3)n1 (stereo not drawn)	48%[activator]	-1%
39	C#CCNC(=O)C1=C[C@@H](c2csc3ccccc23)[C@H](CCCO)[C@@H](OCC)O1	-16%	i
40	CC(NC(=O)c1cccnc1Sc1ccccc1)c1ccc(S(N)(=O)=O)cc1 (stereo not drawn)	-9%	0%
41	Cc1ccc(CN2CCNC(=O)C2CC(=O)N(Cc2c(C)nn(C)c2C)C2CC2)o1 (stereo not drawn)	0%	i
42	NS(=O)(=O)c1ccc(CCNC(=O)COC(=O)/C=C/c2ccccc2Cl)cc1	-3%	i
43	COC(=O)C1=C(C)N(CC2CC2)C(=NCc2cccc(Cl)c2)N[C@H]1c1ccccc1	?	-9%
44	CC1(C)COC(c2cccc(C3=NC(C)(C)CO3)n2)=N1	-16%	-5%
45	Cc1onc(-c2ccccc2Cl)c1NC(=O)NCc1cccs1	1%[7.34 µM]	i[7.34 µM]
46	CCC1(C)Cc2[nH]c(=O)c(C#N)cc2CO1 (stereo not drawn)	-12%	-4%
47	Cc1noc(NS(=O)(=O)c2ccc(N/C=C\C(=O)c3ccc4c(c3)OCO4)cc2)c1C	-14%	-12%
48	Cc1occc1-c1nnc(SC(C)C(=O)Nc2ccccc2F)o1 (stereo not drawn)	-12%	-2%
49	Cc1ccc(S(=O)(=O)NCC(=O)NC2CCCC2)cc1	-7%	-2%
50	CCCC(=O)Nc1cc(-c2nnc(OC)c3ccccc23)ccc1N1CCOCC1	-16%	·
51	CCN(CC)S(=O)(=O)c1cccc(C(=O)OCC(=O)Nc2ccc3c(c2)c2ccccc2n3CC)c1	?	?
52	CCCOc1nc2c(c(=O)n(C)c(=O)n2C)n1Cc1cccc2ccccc12	-14%	i
53	C[C@]12CCC3C(C=CC4=CC(=O)CC[C@]43C)C1CC[C@]2(O)CCC(=O)O (stereo partly drawn)	-21%	-12%
54	CNC(=S)Nc1ccc(N2CCCC2)c(S(=O)(=O)Nc2ccc(OC)cc2)c1	-14%	-25%
55	OC(c1ccc2c(c1)CN(Cc1c[nH]c3ccccc13)CCO2)c1ccccn1 (stereo not drawn)	-4%	-6%
56	CCOc1ccccc1N(C)C(=O)Cn1nc(Cc2ccncc2)c2ccccc2c1=O	-7%	-14%

(continued)
entry	structure	VACV Venus inh	Vaccinia mCherry
57	CCCc1cc(=O)[nH]c(SCCCCN2C(=O)c3ccccc3C2=O)n1	-8%	-6%
58	C=CCN(c1ccccc1)S(=O)(=O)c1cccc(C(=O)OCC(=O)NC2CC2)c1	5%	6%
59	Cc1ccc(NS(=O)(=O)c2ccc(-n3cccn3)cc2)c(Br)c1	-4%&-20%	-13%
60	COc1ccccc1C(=O)NC(=O)COC(=O)c1ccc(NC(=O)CC#N)cc1	-6%	-3%
61	COc1cc(NC(=O)c2cc3c(=O)n(Cc4cccs4)ccc3nc2C)cc(OC)c1OC	-11%	i
62	Cc1cc(-c2nc(-c3ccncc3)no2)ccc1[N+](=O)[O-]	-2%	-12%
63	CCN1C(=O)[C@H]2[C@@H](c3ccc(C)cc3)N[C@]3(CCCN(Cc4ccc(Cl)cc4)C3=O)[C@H]2C1=O	-29%	i
64	COc1cc(OC)c(C2CC(=O)N3CN(C)CSC3=C2C#N)cc1OC (stereo not drawn)	-10%	-1%
65	O=C(Nc1ccc(S(=O)(=O)N2CCCCCC2)cc1)c1ccco1	-8%	-2%
66	Cc1ccc(N2C(=O)C(NC(=O)c3c(F)cccc3F)(C(F)(F)F)C3=C2CC(C)(C)CC3=O)cc1 (stereo not drawn)	-7%	i
67	O=C1NC(c2ccccc2)C(C(=O)c2cccs2)C(O)(C(F)(F)F)N1 (stereo not drawn)	3%	·
68	O=C(COC(=O)CCOc1ccccc1)Nc1ncc(Cl)cc1Cl	-10%	-13%
69	CN1CCN(C(=O)c2ccc(-c3cc4nc(NCc5cccnc5)n(C)c(=O)c4s3)cc2)CC1	?	-16%
70	CCCCOc1ccc(CCC(=O)N/N=C/c2ccco2)cc1	-11%[7.34 µM]	0%[7.34 µM]
71	COc1cccc(NC(=O)CSC2=Nc3ccccc3C3=NC(CC(=O)NC4CCCCC4)C(=O)N23)c1 (stereo not drawn)	-18%	-16%
72	Cc1cc(C)cc(OCC(=O)OCC(=O)Nc2c(C)n(C)n(-c3ccccc3)c2=O)c1	-15%	i
73	N#C/C(=C\c1ccc(OCC(N)=O)cc1)c1ccccc1	-18%	i
74	CN1C(=O)C[N+]([O-])=C(c2ccccc2)c2cc(Cl)ccc21	-12%	i
75	Cn1ccc2cc(S(=O)(=O)N3CCC(C(=O)NCCc4ccccc4)CC3)ccc21	-8%	-11%
76	S=c1[nH]nc(-c2ccccn2)n1/N=C/c1c(Cl)cccc1Cl	-4%	-2%
77	O=C(N/N=C/c1ccc(-c2ccc([N+](=O)[O-])cc2)o1)C(O)c1ccccc1 (stereo not drawn)	-6%	?
78	COc1ccc(CCNC(=O)CCC(=O)N2CCOc3ccccc32)cc1OC	-3%	4%
79	O=C(C[n+]1ccccc1Br)c1ccc(F)cc1	-9%	-13%
80	O=C(COC(=O)c1ccc(Br)cc1)NCCc1ccccc1	-14%	i

Single records (already shown).
Listed for Cn1ccc2cc(S(=O)(=O)N3CCC(C(=O)NCCc4ccccc4)CC3)ccc21 → VACV Venus inh: -8%; Vaccinia mCherry: -11%
Listed for O=C(N/N=C/c1ccc(-c2ccc([N+](=O)[O-])cc2)o1)C(O)c1ccccc1 (stereo not drawn) → VACV Venus inh: -6%; Vaccinia mCherry: ?

Additional records follow.
entry	structure	VACV Venus inh	Vaccinia mCherry
81	Cc1ccc(-c2nnc(SCC(=O)NC3CCCC3)nc2-c2ccc(C)cc2)cc1	-17%	-15%
82	O=C(N/N=C/c1cnc(N2CCOCC2)s1)c1ccccc1	-6%	-13%
83	O=C(Nc1ccc(N2CCOCC2)cc1)c1ccc(Cl)nc1	-25%	·
84	Cc1cc(NC(=O)C(C)SCC(=O)OC(C)C(=O)Nc2ccccc2C)no1 (stereo not drawn)	-6%	-19%
85	CCCCCC(=O)NC(=S)Nc1ccc(Cl)cn1	-7%	-22%
86	Cc1nnc(NC(=O)CSc2nnc(C(C)NC(=O)c3ccccc3F)n2C)s1 (stereo not drawn)	0%	-13%
87	Cc1cc(C(=O)NCC(=O)OCC(=O)N(C(C)C)C(C)C)ccc1[N+](=O)[O-]	-9%	-12%
88	Cn1nc(-c2ccccc2)c(C(=O)NCC(=O)O)c1Cl	0%	-15%

A draw from above in order of formula weight, ascending.
entry	structure	VACV Venus inh	Vaccinia mCherry
82	O=C(N/N=C/c1cnc(N2CCOCC2)s1)c1ccccc1	-6%	-13%
87	Cc1cc(C(=O)NCC(=O)OCC(=O)N(C(C)C)C(C)C)ccc1[N+](=O)[O-]	-9%	-12%
81	Cc1ccc(-c2nnc(SCC(=O)NC3CCCC3)nc2-c2ccc(C)cc2)cc1	-17%	-15%

The main list resumes; the three compounds before the break are reprinted first.
entry	structure	VACV Venus inh	Vaccinia mCherry
86	Cc1nnc(NC(=O)CSc2nnc(C(C)NC(=O)c3ccccc3F)n2C)s1 (stereo not drawn)	0%	-13%
87	Cc1cc(C(=O)NCC(=O)OCC(=O)N(C(C)C)C(C)C)ccc1[N+](=O)[O-]	-9%	-12%
88	Cn1nc(-c2ccccc2)c(C(=O)NCC(=O)O)c1Cl	0%	-15%
89	CCOC(=O)CC(=O)Nc1nnc(CC(C)C)s1	-10%	-12%
90	Cc1ccc(CN2CCCn3nc(C(=O)NCCc4ccccc4Cl)cc3C2=O)cc1	-16%	-16%
91	Oc1ccccc1C=NN=CC=Cc1ccccc1	-3%	i
92	COC(=O)CS(=O)(=O)c1ccsc1C(=O)Nc1ccc(F)cc1	-20%	i
93	CCC1CCCCN1S(=O)(=O)c1ccc(NC(=O)c2cc(=O)c3c(C)cc(C)cc3o2)cc1 (stereo not drawn)	-7%	-7%
94	O=C(c1cccc2ccccc12)C1CCCN(Cc2ccon2)C1 (stereo not drawn)	-4%	?
95	O=C(C1CCC1)N1CCN(S(=O)(=O)c2ccc(F)cc2)CC1	-7%	-14%
96	Cc1cccc(N2CCN(CCCNC(=O)c3sc4ncccc4c3-n3cccc3)CC2C)c1 (stereo not drawn)	-14%	-12%
97	Nc1ccn(CC(=O)NCc2ccc3c(c2)OCO3)c(=O)n1	-4%	i
98	CC1=C(c2ccc(C)c(C)c2)S(=O)(=O)N=C1N1CCC(C(=O)NC(C)Cc2ccco2)CC1 (stereo not drawn)	-9%	-7%
99	COCCn1c(=NC(=O)/C=C/c2ccccc2)sc2cc(NC(C)=O)ccc21	-14%	i
100	NNC(=O)CN1C(CN2CCOCC2)=Nc2ccc(Br)cc2C1c1ccccc1 (stereo not drawn)	-7%	?
101	CC(C)OC(=O)CC12CN3CN(C1)CC(CC(=O)OC(C)C)(C3)C2=O	1%	-13%
102	Cc1ccc(S(=O)(=O)N2CCN(C(=O)C3CC3C)CC2)c(C)c1 (stereo not drawn)	-22%	-7%
103	O=C(c1ccc(F)cc1)N1CCCCC(S(=O)(=O)c2ccccc2)C1=O (stereo not drawn)	-21%	-15%
104	COC(=O)/C=C1\S/C(=N/NC(=O)c2ccc(OC)cc2)NC1=O	-2%	i
105	Cc1ccc(OCCn2cc(C(=O)c3ccco3)c3ccccc32)cc1C	-7%	-13%
106	Cc1cccc(C(C(=O)NC2CCCCC2)N(Cc2cccnc2)C(=O)c2csnn2)c1 (stereo not drawn)	14%	i
107	O=C(Nc1ccccc1F)c1cccc(C(=O)Nc2ccccc2F)c1	-9%	-9%
108	COc1ccc(N2CC(O)=C(c3n(C)c4ccccc4[n+]3C)C2=N)cc1	-9%	-18%

Compound activity from PubChem BioAssay.
